# Screening data as filed in PubChem BioAssay.
# MARV entry inh: blocks Marburg virus binding to or entry into cells. Marburg virus pseudotyped entry inhibition, cell reporter; control for the full effect not named in the record; about a third of the inactives were read at about 46 µM. Potency, µM (titrated, usually from 37.8 µM), inactives show top-dose activity change, negative = inhibition, hits mostly inhibitors. actives 1.8% (n = 300,000); active = well fitted inhibition curve with a large enough effect; inconclusive = small, poorly fitted or top-dose-only effect, or effect the other way; inactive = flat fitted curve, though single readings scatter; tested in HEK293 cells; about a fifth of its hits are not listed in these tables; also: % is scaled to controls: 0 for no effect and ±100 for the full control effect; luciferase read-out
# StopGo reporter: FMDV 2A StopGo reporter, luciferase signal | human cells with a luciferase reporter of 2A StopGo recoding; control for the full effect not named in the record | Potency, µM (titrated, usually from 57.9 µM), inactives show top-dose signal change, negative = less light | actives 1.2% (n = 410,000); active = well fitted falling curve with a large enough effect; inconclusive = small, poorly fitted or top-dose-only effect; inactive = no such curve, though single readings can be large or run the other way; tested in HEK293T cells; also: % is scaled to controls: 0 for no effect and ±100 for the full control effect; nearly all actives have a fitted effect of over 45% in size; luciferase light after 4 h
# Cruzain noTriton: cruzain (T. cruzi) inhibition without detergent; purified cruzain, Z-FR-AMC fluorescence, no detergent; Potency, µM, for the others: max response, negative = inhibition, usual class: inhibitors; actives 2.3% (n = 200,000); AID 1476; active = well fitted curve in the direction sought with a large enough effect; inconclusive = small, poorly fitted or top-dose-only effect, or another doubt; inactive = no such curve, though single readings can be large; an effect the other way counts as inactive or inconclusive;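 also: plate controls were enzyme without inhibitor for no effect and buffer without enzyme for full effect; nearly all actives have a fitted effect of over 40% in size; top concentration of the series not given in the record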
# Target sequence (P25779 123-467 limits assumed): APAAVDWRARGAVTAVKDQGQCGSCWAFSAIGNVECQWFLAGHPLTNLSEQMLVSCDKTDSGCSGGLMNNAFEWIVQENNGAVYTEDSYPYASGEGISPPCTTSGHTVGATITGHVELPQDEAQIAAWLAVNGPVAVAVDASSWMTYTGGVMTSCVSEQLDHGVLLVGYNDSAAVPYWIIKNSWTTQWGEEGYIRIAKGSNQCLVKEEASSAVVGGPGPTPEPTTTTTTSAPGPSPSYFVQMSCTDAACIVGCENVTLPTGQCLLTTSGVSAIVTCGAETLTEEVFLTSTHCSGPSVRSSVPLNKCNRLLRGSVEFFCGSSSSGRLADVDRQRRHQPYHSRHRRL
#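 Purified cruzain at 1.5 nM, pre-incubated 15 min with compound at room temperature in 100 mM sodium acetate pH 5.5, 5 mM DTT, 0.00005% Triton X-100. Reaction started with 2 uM Z-FR-AMC; AMC fluorescence increase over 60 s gives rate.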
# NS1 function inh: influenza NS1 inhibition. S. cerevisiae slowed by influenza A NS1, growth recovery by OD600. Potency, µM (highest dose often 46.1 µM), inactives show top-dose activity, positive = more growth. actives 0.4% (n = 270,000). AID 2326; also: actives are rising curves; nearly all actives have a fitted effect of over 50% in size
#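 Growth recovery, yeast-based: influenza A NS1 expressed in S. cerevisiae causes slow growth, and suppressors are detected by OD600. The parent strain without NS1 is used as positive control.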
# RE007 growth inh: less growth of the S. pombe RE007 Vpr strain | S. pombe RE007 Vpr strain, BacTiter-Glo ATP luminescence, 24 h; control for the full effect not named in the record | Potency, µM (titrated, usually from 92.2 µM), without a hit: at the highest dose activity change, negative = less growth | actives 0.21% (n = 360,000); active = well fitted falling curve with a large enough effect; inconclusive = small, poorly fitted or top-dose-only effect; inactive = no such curve, though single readings can be large or run the other way;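 also: % is scaled to controls: 0 for no effect and ±100 for the full control effect; nearly all actives have a fitted effect of over 50% in size; the assay follows cell death caused by Vpr and the record does not say whether a fall means rescue or toxicity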
#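 Fission yeast RE007 carrying one integrated HIV-1 vpr copy, seeded at OD 0.01 in PMG+AL medium with 23 nL pinned compound. Grown 24 h at 30 degrees; viability read by BacTiter-Glo luminescence after 5 min.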
# Cruzain inh Det: inhibitors of Trypanosoma cruzi cruzain with detergent; AID 1478; purified cruzain, Z-FR-AMC fluorescence, 0.01% Triton; Potency, µM, for the others: max response, negative = inhibition, usual class: inhibitors; actives 0.43% (n = 200,000); P25779; active = well fitted curve in the direction sought with a large enough effect; inconclusive = small, poorly fitted or top-dose-only effect, or another doubt; inactive = no such curve, though single readings can be large; an effect the other way counts as inactive or inconclusive;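 also: plate controls were neutral wells for no effect and buffer without enzyme for full effect; nearly all actives have a fitted effect of over 40% in size; top concentration of the series not given in the record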
#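 Detergent-containing run (0.01% Triton X-100) in acetate buffer pH 5.5 with 5 mM DTT: enzyme at 1.5 nM final, 15 min compound preincubation at room temperature, then 2 uM Z-FR-AMC substrate. Activity taken as 60 s fluorescence increase at 360/450 nm.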
# LASV entry inh: blocks Lassa virus binding to or entry into cells | actives 1.2% (n = 300,000) | Lassa virus pseudotype entry inhibition, cell reporter; control for the full effect not named in the record | Potency, µM (doses to about 37.9 µM), without a hit: at the highest dose activity change, negative = inhibition, usual class: inhibitors; active means well fitted inhibition curve with a large enough effect; inconclusive means small, poorly fitted or top-dose-only effect, or effect the other way; inactive means flat fitted curve, though single readings scatter; tested in HEK293 cells; also: % is scaled to controls: 0 for no effect and ±100 for the full control effect; nearly all actives have a fitted effect of over 50% in size; luciferase read-out
# SARS PLpro yeast: blocks SARS-CoV papain-like protease in a yeast assay. S. cerevisiae expressing SARS-CoV PLpro, growth rescue; control for the full effect not named in the record. Potency, µM (highest dose often 32.9 µM), for inactives: at the top dose activity, positive = growth rescue. actives 0.19% (n = 330,000). AID 485353; also: 0% is about no effect; nearly all actives have a fitted effect of over 55% in size; growth read by luminescence after 48 h
# Numbers without * were called inactive; ? = inconclusive; . = no result given; & = joins results of further samples; [ ] = remark or other dose. Unless noted, calls follow the shape of the dose curve; as a rule, active means well fitted rising curve with a large enough effect; inconclusive means small, poorly fitted or top-dose-only effect; inactive means no such curve, though single readings can be large or run the other way. Potency is read from the fitted curve at half-maximal effect.
SMILES,MARV entry inh,StopGo reporter,Cruzain noTriton,NS1 function inh,RE007 growth inh,Cruzain inh Det,LASV entry inh,SARS PLpro yeast
Cc1ccnc(Nc2nc(-c3ccc(F)cc3)cs2)c1,?,-93%,.,-25%,-22%,.,?,-4%
COc1cccc(N2CCN(c3nc4ccc(C(=O)c5ccccc5)cc4n4c(C)nnc34)CC2)c1,.,2%,17%,.,.,-3.7%,-7%[46.1 µM],.
CSc1ncccc1C(=O)OCC(=O)NC1CCS(=O)(=O)C1 (stereo not drawn),12%,-26%,-1%,2%,16%,1.6%,-1%,3%
Cc1ccc(/C=C/C2=Cc3c(sc(NC(=O)CSc4n[nH]c(N)n4)c3C#N)C(C)(C)C2)o1,.,.,14%,18%,.,-17%,.,12%
O=C(O)CNS(=O)(=O)c1ccc(Br)s1,-21%,-3%,-10%,10%,-21%,2.6%,4%,3%
CCCCCn1c(=O)c(C(=O)Nc2ccncc2)c(O)c2ccccc21,.,.,11%,-52%,.,6.5%,.,0%
CN(C)c1nc(/C=C(\C#N)C(N)=O)c(Cl)n1-c1ccc(F)cc1,?,-3%,.,.,17%,.,?,0%
CN(CCOc1ccccc1)CC(=O)Nc1cc([N+](=O)[O-])ccc1Cl,-11%[46.1 µM],?,.,.,14%,.,-18%,1%
O=C(c1ccccc1F)n1c2c(c3ccccc31)CCCC2,.,4%,.,-4%,-13%,.,.,-4%
CC(C)n1cnc2cc(NCc3ccco3)ccc21,?,23%,-4%,-7%,-11%,4.9%,24%,3%
COc1ccccc1C1(CC(=O)O)CCOC(C)(C)C1 (stereo not drawn),?,-6%,8%,9%,6%,3.6%,5%,0%
CN(C)c1ccc(/C=N/N=C(N)N)cc1[N+](=O)[O-],?,?,.,1%,2%,.,4%,0%
CCOC(=O)Nc1ccc(C)cc1NC(=O)OCC,14%,-10%,-7%,-3%,-23%,11%,12%,1%
O=C1CCCCCCC1Sc1ccccc1[N+](=O)[O-] (stereo not drawn),?,-11%,6%,-12%,16%,-2.4%,7%,-19%
Cc1cc([N+](=O)[O-])cc(C)c1OCC(=O)N/N=C/c1ccc(OC(=O)c2ccccc2Br)cc1,6%,-3%,10µM*,10%,3%,-4.2%,?,4%
COc1ccccc1NC(=O)CSc1nnc(CC(=O)Nc2ccccc2F)n1C,10%[46.1 µM],35%[activator],.,-6%,-3%,.,6%[46.1 µM],2%
COc1cc(C(=S)N2CCOCC2)cc(OC)c1OS(=O)(=O)c1ccc(NC(C)=O)cc1,-18%,-2%,6%,-9%,-3%,-3.1%,-1%,1%
COc1cccc(Nc2nnc(-c3cc4ccc(O)cc4oc3=O)s2)c1,.,2%,1%,.,.,1.5%,23%[46.1 µM],.
COc1cc(OC)cc(C(=O)N2CCN(c3ccccc3F)CC2)c1,?,31%[activator],8%,-5%,-12%,0.0%,-25%,8%
C[C@@H]1O[C@H](C[N+](C)(C)C)CS1,?,.,-3%,0%,.,2.1%,5%,.
COc1ccc(C2=NS(=O)(=O)N(C)C(C(=O)N3CCC(C(N)=O)CC3)=C2)cc1,.,3%,.,-5%,-1%,.,.,-3%
COc1ccc(N2C(=O)C(CC(=O)Nc3ccccc3)N(Cc3cccs3)C2=O)cc1 (stereo not drawn),.,9%,.,-5%,-5%,.,.,-1%
Cc1cccc2nc(CSc3nc4cc([N+](=O)[O-])ccc4s3)cn12,15%,1%,0%,16%,-11%,-12%,?,-19%
COc1cc(OC)c2c(c1)O[C@@H](c1ccc(OC)c(OC)c1)[C@H](O)C2,.,6%,.,-2%,9%,.,.,5%
COc1cccc(N=Nc2ccc(O)c3ncccc23)c1,?,-4%,.,-115%,-27%,.,?,5%
O=C1CCN(Cc2ccc(Br)cc2)CCN1[C@H](CO)c1ccccc1,.,-24%,.,-8%,-6%,.,.,4%
Cc1ccc(C(=O)O/N=C\c2ccc(N3CCOCC3)c([N+](=O)[O-])c2)cc1,16%,?,30%,-5%,-12%,-4.0%,-1%,-2%
CCS(=O)(=O)Nc1ccc(-c2nc3cccnc3s2)cc1,.,-1%,.,-2%,6%,.,.,1%
COc1ccc(N(CC(=O)N/N=C/c2cc(Br)c(C)o2)S(=O)(=O)c2ccc(NC(C)=O)cc2)cc1,?,-18%,.,23%,13%,.,?,0%
CCOC(=O)C1CCCN(S(=O)(=O)c2ccc(S(=O)(=O)N(CC)CC)cc2)C1 (stereo not drawn),.,?,.,-3%,9%,.,.,1%
N#C/C(=C\c1ccccc1OCc1ccc(C(=O)O)cc1)C(=O)Nc1ccc(O)cc1,?,-28%,.,.,-6%,.,8%,1%
CC(=O)N1CCCc2cc(S(=O)(=O)N3CCC(C(=O)NCc4cccc(C)c4)CC3)ccc21,.,-11%,4%,.,.,-1.2%,-19%[46.1 µM],.
O=C(CN(C(=O)CCC(=O)Nc1nccs1)c1cccc(F)c1)NCCc1ccccc1,5%[46.1 µM],-4%,.,-5%,-20%,.,?,1%
Cc1cccc(NC(=O)CN2CCN(C(=O)c3cccc(-n4cnnn4)c3)CC2)c1C,-1%,4%,.,.,-2%,.,0%,1%
Cn1ncc(Br)c1C(=O)N/N=C/c1ccc(OS(=O)(=O)c2ccccc2)cc1,22%,0%,?,3%,0%,-5.5%,15%,-3%
Cc1ccc(C(C(=O)NC2CCCCC2)N(C(=O)CCCC(=O)Nc2ccccn2)c2ccc3c(c2)OCCO3)cc1 (stereo not drawn),20%,28%,1%,-9%,5%,-2.3%,-11%,1%
COc1ccccc1C(C)NCC(=O)NC(=O)NCc1ccco1 (stereo not drawn),17%,-13%,.,.,-7%,.,-20%,.
CC(Sc1cccc[n+]1[O-])C(=O)Nc1cccc(S(=O)(=O)N2CCOCC2)c1 (stereo not drawn),0%,-3%,-13%,-44%,-14%,-2.0%,-8%,?
COC(=O)N/N=C/c1cn(CCCOc2ccccc2)c2ccccc12,16µM*,?,12%,10%,-6%,-9.5%,?,7%
O=C(CNc1ccccc1-c1ccccc1)NCc1ccccc1,-19%,3%,3%,-26%,21%,-8.6%,-4%,3%
O=C(C(=O)N1CCN(Cc2ccc3c(c2)OCO3)CC1)c1c[nH]c2ccccc12,.,-10%,.,-14%,5%,.,.,?
Cc1cccc(Nc2ncc(NC(=O)c3cccc(F)c3)c(Nc3cccc(C)c3)n2)c1,?,-15%,?,.,.,-5.8%,-1%[46.1 µM],.
CCCCN(C(=O)c1ccc(Cl)c(S(=O)(=O)N2CCOCC2)c1)c1c(N)n(CCC)c(=O)[nH]c1=O,.,-7%,.,-3%,-3%,.,.,2%
Cc1c(Cl)cccc1-n1nc(C)c2c(C)cc(=O)n(CC(=O)N3CCCc4ccccc43)c21,.,-6%,-5%,.,.,-6.7%,?,.
COC(=O)c1sc2nc(CSc3nc4ccc(C)cc4[nH]3)[nH]c(=O)c2c1C,-6%,-2%,?,-1%,25%,-5.3%,-10%,8%
CCN1CCN(c2ccc(S(=O)(=O)N3CCCCC3)cc2NC(=O)c2cccc(NC(C)=O)c2)CC1,?,-6%,.,.,-11%,.,27%,-5%
Cc1ccc(-n2ncc(C(=O)Nc3ccc(Cl)cc3)c2C2CCNCC2)cc1C,?,-23%,.,.,-22%,.,?,-2%
CC1CCN(c2c(NCc3ccc(C(=O)N4c5ccccc5CC4C)cc3)c(=O)c2=O)CC1 (stereo not drawn),.,-21%,-15%,-107%,-2%,-3.9%,.,9%
CCc1ccccc1NC(=O)c1noc2c1CC(C(C)(C)C)CC2 (stereo not drawn),-12%[46.1 µM],-26%,-19%,.,.,-11%,-7%[46.1 µM],.
CC(C)CNc1nc(SCC(=O)Nc2ccccc2)nc(N2CCOCC2)n1,?,13%,.,2%,-3%,.,-11%,-1%
CCCC(=O)N(Cc1cc(=O)[nH]c2ccccc12)c1ccc(OC)cc1,-27%[46.1 µM],-16%,.,-6%,-9%,.,-1%,1%
Nc1nnc(Cc2ccccc2F)s1,9%[46.1 µM],-3%,.,5%,-2%,.,1%[46.1 µM],0%
Cc1ccccc1COC(=O)c1nn(-c2ccccc2)nc1N,?,8%&6%,28%,.,-14%,-3.2%,?,-8%
CCC1CCCCN1C(=O)CSc1nnc(-c2ccc(OC)c(OC)c2)o1 (stereo not drawn),22%[46.1 µM],-6%,-3%,.,.,-0.6%,-11%[46.1 µM],.
CCOC(=O)c1sc2nc(C)cc(C)c2c1N,?,47%[activator],?,5%,-11%,0.6%,?,-10%
CC1=NN(/C(=N\c2nnc(C)s2)Nc2ccc(C(C)(C)C)cc2)[C@H](c2ccc(C)cc2)S1,8.2µM*,-17%,-7%,-11%,-12%,-12%,-18%,-57%
O=C(COc1ccc2ccccc2c1)NNC(=O)Cc1cccc2ccccc12,?,3%,?,0%,3%,6.3%,-6%,5%
CC(C)(C)c1ccc(C(=O)C2CCCN(Cc3ccon3)C2)cc1 (stereo not drawn),.,23%,.,-2%,-6%,.,.,1%
COc1ccccc1NS(=O)(=O)c1cc(NC(=O)c2sc3cc(Cl)ccc3c2Cl)ccc1C,.,41%[activator],.,4%,-1%,.,.,0%
O=C(c1ccco1)N1CCN(c2ccc([N+](=O)[O-])cc2F)CC1,18%[46.1 µM],12%,.,-6%,-3%,.,14%[46.1 µM],-3%
CCC(C(=O)NC1CCCC1)N(Cc1ccc2c(c1)OCO2)C(=O)c1snc(C(N)=O)c1N (stereo not drawn),0%&-25%,-19%,6%,8%,16%,-1.4%,-15%,-1%
COc1cccc(NC(=O)c2cc3ccccc3oc2=O)c1,.,-54%,.,-7%,-9%,.,.,5%
CCn1cc2nc(SCC(=O)Nc3ccc(OC)cc3OC)n(Cc3ccc(Cl)cc3)c(=O)c2n1,?,47%[activator],?,.,.,-4.0%,?,.
